Screening data (PubChem)
Cruzain Triton = blocks cruzain activity in presence of Triton detergent. P25779. purified cruzain, Z-FR-AMC fluorescence, 0.01% Triton. AID 1478. Potency, µM, for the others: max response, negative = inhibition, hits mostly inhibitors. hit rate 0.43% among 200,000; active = well fitted curve in the direction sought with a large enough effect; inconclusive = small, poorly fitted or top-dose-only effect, or another doubt; inactive = no such curve, though single readings can be large; an effect the other way counts as inactive or inconclusive;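 note: plate controls were neutral wells for no effect and buffer without enzyme for full effect; nearly all actives have a fitted effect of over 40% in size; top concentration of the series not given in the record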
Target sequence (P25779 123-467 limits assumed): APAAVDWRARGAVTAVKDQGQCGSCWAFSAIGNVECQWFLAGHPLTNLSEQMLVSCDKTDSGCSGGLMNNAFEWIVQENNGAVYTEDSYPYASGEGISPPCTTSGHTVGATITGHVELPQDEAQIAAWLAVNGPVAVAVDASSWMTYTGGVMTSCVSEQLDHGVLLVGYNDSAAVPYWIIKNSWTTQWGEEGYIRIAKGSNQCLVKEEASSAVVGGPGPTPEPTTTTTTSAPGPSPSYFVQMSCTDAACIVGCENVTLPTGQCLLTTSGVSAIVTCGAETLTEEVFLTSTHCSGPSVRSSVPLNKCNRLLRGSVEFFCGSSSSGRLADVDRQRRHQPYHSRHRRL
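Steps: dispense cruzain (1.5 nM final) in acetate buffer pH 5.5 with DTT and 0.01% Triton X-100; pin-transfer compounds; incubate 15 min RT; add Z-FR-AMC (2 uM final); read fluorescence every 30 s, using the 60 s intensity change.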
StopGo reporter = FMDV 2A StopGo reporter, luciferase signal; hit rate 1.2% among 410,000; human cells with a luciferase reporter of 2A StopGo recoding; control for the full effect not named in the record; Potency, µM (top dose mostly 57.9 µM), without a hit: top-dose signal change, negative = less light; active = well fitted falling curve with a large enough effect; inconclusive = small, poorly fitted or top-dose-only effect; inactive = no such curve, though single readings can be large or run the other way; tested in HEK293T cells; note: % is set by controls: 0 for no effect and ±100 for the full control effect; nearly all actives have a fitted effect of over 45% in size; luciferase light after 4 h
SARS PLP yeast = inhibitors of SARS-CoV papain-like protease in yeast. S. cerevisiae expressing SARS-CoV PLpro, growth rescue; control for the full effect not named in the record. Potency, µM (titrated, usually from 32.9 µM), for the others: at the top dose activity, positive = growth rescue. hit rate 0.19% among 330,000; note: 0% is about no effect; nearly all actives have a fitted effect of over 55% in size; growth read by luminescence after 48 h
Cruzain inh noDet = blocks cruzain activity in detergent-free assay. P25779. purified cruzain, Z-FR-AMC fluorescence, no detergent. Potency, µM, for inactives: max response, negative = inhibition, hits mostly inhibitors. hit rate 2.3% among 200,000. AID 1476; active = well fitted curve in the direction sought with a large enough effect; inconclusive = small, poorly fitted or top-dose-only effect, or another doubt; inactive = no such curve, though single readings can be large; an effect the other way counts as inactive or inconclusive;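 note: plate controls were enzyme without inhibitor for no effect and buffer without enzyme for full effect; nearly all actives have a fitted effect of over 40% in size; top concentration of the series not given in the record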
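Detergent-free condition (0.00005% Triton X-100) in acetate buffer pH 5.5 with DTT. 1.5 nM enzyme and compound were pre-mixed 15 min, then 2 uM Z-FR-AMC substrate added; reaction progress from fluorescence change between first and third reads (60 s).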
RE007 growth inh = less growth of the S. pombe RE007 Vpr strain; S. pombe RE007 Vpr strain, BacTiter-Glo ATP luminescence, 24 h; control for the full effect not named in the record; Potency, µM (highest dose often 92.2 µM), without a hit: at the top dose activity change, negative = less growth; AID 651644; hit rate 0.21% among 360,000; active = well fitted falling curve with a large enough effect; inconclusive = small, poorly fitted or top-dose-only effect; inactive = no such curve, though single readings can be large or run the other way;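 note: % is set by controls: 0 for no effect and ±100 for the full control effect; nearly all actives have a fitted effect of over 50% in size; the assay follows cell death caused by Vpr and the record does not say whether a fall means rescue or toxicity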
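Fission yeast RE007 carrying one integrated HIV-1 vpr copy, seeded at OD 0.01 in PMG+AL medium with 23 nL pinned compound. Grown 24 h at 30 degrees; viability read by BacTiter-Glo luminescence after 5 min.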
NS1 function inh = influenza NS1 inhibition; AID 2326; S. cerevisiae slowed by influenza A NS1, growth recovery by OD600; hit rate 0.4% among 270,000; Potency, µM (titrated, usually from 46.1 µM), for the others: at the top dose activity, positive = more growth; note: actives are rising curves; nearly all actives have a fitted effect of over 50% in size
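OD600 was taken as the measure of yeast growth restored by compound in an NS1-expressing S. cerevisiae strain. Cells had been washed out of glucose medium and diluted 1:100 into galactose -URA medium, pH 6.0.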
MARV entry inh = blocks Marburg virus binding to or entry into cells. Marburg virus pseudotyped entry inhibition, cell reporter; control for the full effect not named in the record; about a third of the inactives were read at about 46 µM. Potency, µM (series often up to 37.8 µM), without a hit: at the highest dose activity change, negative = inhibition, hits mostly inhibitors. hit rate 1.8% among 300,000; active = well fitted inhibition curve with a large enough effect; inconclusive = small, poorly fitted or top-dose-only effect, or effect the other way; inactive = flat fitted curve, though single readings scatter; tested in HEK293 cells; about a fifth of its hits are not listed in these tables; note: % is set by controls: 0 for no effect and ±100 for the full control effect; luciferase read-out
LASV entry inh = blocks Lassa virus binding to or entry into cells; Lassa virus pseudotype entry inhibition, cell reporter; control for the full effect not named in the record; Potency, µM (doses to about 37.9 µM), for inactives: at the highest dose activity change, negative = inhibition, usual class: inhibitors; hit rate 1.2% among 300,000; active means well fitted inhibition curve with a large enough effect; inconclusive means small, poorly fitted or top-dose-only effect, or effect the other way; inactive means flat fitted curve, though single readings scatter; tested in HEK293 cells; note: % is set by controls: 0 for no effect and ±100 for the full control effect; nearly all actives have a fitted effect of over 50% in size; luciferase read-out
Numbers without * were called inactive; ? = inconclusive; . = not tested or not shown; & = joins results of further samples; [ ] = another dose, or the depositor's remark. Unless noted, calls come from the whole dose curve; as a rule, active means well fitted rising curve with a large enough effect; inconclusive means small, poorly fitted or top-dose-only effect; inactive means no such curve, though single readings can be large or run the other way. Potency is the fitted concentration of half-maximal effect.

Second line of a record: Cruzain Triton, StopGo reporter, SARS PLP yeast, Cruzain inh noDet, RE007 growth inh, NS1 function inh, MARV entry inh, LASV entry inh
(1) COc1ccccc1NC(=O)c1cc2ccccc2nc1C
  ., -12.8%, 1.5%, ., -11.7%, -0.5%, 10.0%[46.1 µM], 13.8%
(2) COC(=O)CSc1nc2sc3c(c2c(=O)n1-c1ccc(C)cc1)CC(C(C)C)OC3 (stereo unspecified)
  -1.9%, -12.3%, ., 16.4%, ., ., 7.3%[46.1 µM], 1.7%[46.1 µM]
(3) Cc1cc(C)cc(NC(=O)C(c2ccccc2)N2CCN(CC(=O)N3CCCC3)CC2)c1 (stereo unspecified)
  ., -16.5%, -5.0%, ., -9.6%, ., ?, 2.7%
(4) COCCn1c(SCC(=O)Nc2ccc(F)cc2F)nc2c([nH]c3ccccc32)c1=O
  ., -6.6%, 0.9%, ., 0.9%, 7.5%, -4.2%, -2.2%
(5) Cc1ccc(N(CC(=O)N2CCN(c3cc(Cl)ccc3C)CC2)S(=O)(=O)c2c(C)noc2C)cc1
  -4.9%, -25.3%, ., -26.5%, ., ., ?, ?
(6) C1CCC(n2nnnc2CN2CCN(C3CCCC3)CC2)CC1
  6.7%, -24.4%, 3.3%, -5.9%, 9.2%, -9.3%, 28.0%, 13.2%
(7) O=C(O)c1cc2nc(C3CC3)cc(C(F)(F)F)n2n1
  4.1%, -16.8%, 1.9%, -15.1%, 8.9%, 7.7%, ., .
(8) CCOc1ccccc1N1CCN(C(=O)C2c3ccccc3Oc3ccccc32)CC1
  -4.7%, -4.5%, -22.6%, 1.7%, -4.2%, -60.1%, ?, 7.08µM*
(9) CNS(=O)(=O)c1cccc(C(=O)OCc2cc(=O)n3cc(Br)ccc3n2)c1
  -3.9%, -29.0%, 23.1%, -7.9%, 16.2%, -0.5%, -21.9%, 0.5%
(10) Cc1cnc(C(=O)OCC(=O)Nc2ccc(C)c(S(=O)(=O)N3CCOCC3)c2)cn1
  ., 49.0%[activator], -0.2%, ., -6.8%, ., -2.1%, 11.6%
(11) COc1ccc(OCc2cc(=O)[nH]c3ccccc23)cc1
  ., -26.6%, 3.5%, ., -13.7%, 5.9%, ?, ?
(12) CCOC(=O)C(C)Sc1nc(=O)n2ccccc2n1 (stereo unspecified)
  ., -10.1%, 1.0%, ., 28.5%, 2.7%, 4.1%[46.1 µM], ?
(13) O=C(O)c1ccccc1NS(=O)(=O)c1ccc2c3c(cccc13)C(=O)N2
  -4.5%, 33.6%[activator], 4.1%, 23.1%, 5.2%, 4.6%, ?, 16.1%
(14) O=C(c1ccco1)N1CCN(C(=O)c2sccc2-c2ccccc2)CC1
  0.2%, 0.9%, -12.1%, 4.2%, -14.4%, 6.2%, ?, -1.0%
(15) COc1cc(OC)c(C(=O)O/N=C(\N)c2ccccc2)cc1OC
  ., 1.7%, 0.0%, ., -20.6%, -2.8%, ., .

Second line of a record: Cruzain Triton, StopGo reporter, SARS PLP yeast, Cruzain inh noDet, RE007 growth inh, NS1 function inh, MARV entry inh, LASV entry inh
(16) CCN(CC)S(=O)(=O)c1ccc(N2CCN(C)CC2)c(NC(=O)CSCC(=O)Nc2cccc(C)c2)c1
  ., -11.9%, 6.8%, ., 6.7%, ., ?, 9.6%
(17) COc1ccc(Cl)cc1NC(=O)c1c(NCc2cccnc2)sc2c1CCC(C)C2 (stereo unspecified)
  -3.9%, -29.4%, ., 11.3%, ., ., ., 2.3%[46.1 µM]
(18) CC(=O)Nc1cccc(NC(=O)C2(c3cccs3)CCOCC2)c1
  0.2%, 0.2%, ., -3.8%, ., ., ., 20.9%[46.1 µM]
(19) CS(=O)(=O)N1CCC(C(=O)N2CCN(c3ccccc3F)CC2)CC1
  ., -15.3%, 0.4%, ., 11.1%, ., 7.8%[46.1 µM], ?
(20) Cc1cc(=O)oc2c3c(cc(OCC(=O)NCC4CCC(C(=O)O)CC4)c12)OC(C)(C)CC3 (stereo unspecified)
  ., -17.1%, 2.5%, ., -20.1%, -8.0%, ., .
(21) COC(=O)c1cccc(N2C(=O)c3ccccc3S2(=O)=O)c1
  1.7%, -21.8%, 2.7%, -9.0%, -29.9%, ?, 4.6%, 8.5%
(22) CCc1ccccc1NC(=O)C1CCCN(S(=O)(=O)c2c(C)noc2C)C1 (stereo unspecified)
  5.4%, -19.9%, 5.2%, 0.2%, -8.2%, -56.7%, 2.8%, 9.5%
(23) CC1CN(S(=O)(=O)c2cccc(C(=O)NCCC3=CCCCC3)c2)CC(C)O1 (stereo unspecified)
  ., -26.0%, 4.4%, ., 0.0%, ., ?, -35.0%
(24) CCCCCC(=O)N/N=C(\C)c1ccc(NC(=O)c2ccco2)cc1
  2.3%, 16.6%, -2.1%, -16.6%, -11.4%, -59.2%, -7.2%, 3.55µM*
(25) CCCCOC(=O)c1ccc(NC(=O)C(=O)NCCN(CC)CC)cc1
  ., -7.1%, 1.9%, ., 8.5%, 0.6%, 14.5%[14.2 µM], 0.3%
(26) CC(C)OCCCNC(=O)C1CCC(=O)N1C(C)C (stereo unspecified)
  4.4%, ., -7.1%, -4.8%, -4.1%, -6.7%, ?, 15.7%
(27) S=C(NC1CC1)N1CCN(c2ccc(Cl)cc2)CC1
  ., -27.2%, -1.3%, ., 4.8%, -4.9%, -1.7%, -1.1%
(28) Cc1ccc(-n2nnnc2SCC(=O)N2CCN(C(=O)c3ccco3)CC2)c(C)c1
  5.5%, -18.5%, ?, 5.0%, 4.8%, -14.0%, 9.4%&9.4%, ?
(29) Cc1[nH]c2ccccc2c1NC(=O)CN1CCN(c2cccc(C(F)(F)F)c2)CC1
  -16.0%, -24.4%, ., ?, -7.4%, -131.3%, ?, ?
(30) O=C(Nc1cc2c(cc1C(=O)c1cccc(Br)c1)OCCO2)c1ccccc1F
  0.9%, 0.0%, ., -4.5%, ., ., 17.3%[46.1 µM], -7.1%[46.1 µM]

Second line of a record: Cruzain Triton, StopGo reporter, SARS PLP yeast, Cruzain inh noDet, RE007 growth inh, NS1 function inh, MARV entry inh, LASV entry inh
(31) Cc1noc(C)c1S(=O)(=O)N1Cc2ccccc2CC1C(=O)N(C)C (stereo unspecified)
  ., -4.8%, 0.0%, ., -9.6%, -5.0%, ., .
(32) NS(=O)(=O)c1cccc(NC(=O)c2cc(-c3cccs3)nc3ccccc23)c1
  ., -11.7%, 0.6%, ., -0.6%, 0.0%, ., .
(33) Cc1ccc(NC(=O)[C@H](Cc2ccccc2)N2Cc3ccccc3C2=O)cc1
  4.2%, 11.7%, ., 7.6%, ., ., -2.4%[46.1 µM], 2.1%[46.1 µM]
(34) COC(=O)c1ccccc1NC(=O)CN(c1c(C)cccc1C)S(C)(=O)=O
  ., -15.8%, -3.9%, ., -10.9%, 8.9%, -0.1%[46.1 µM], -1.1%[46.1 µM]
(35) Cn1cc(Br)c(C(=O)NNC(=O)c2cccc(Br)c2)n1
  4.1%, 14.8%, 0.8%, -2.1%, -3.7%, ?, 16.2%, 3.9%
(36) O=C(COC(=O)CC1c2ccccc2CCN1S(=O)(=O)c1ccccc1)Nc1ccccc1 (stereo unspecified)
  -5.4%, 5.1%, -17.0%, 19.3%, -16.3%, 13.3%, ?, ?
(37) O=C(Nc1ccccc1)N1CCN(c2ccc(C(F)(F)F)cn2)CC1
  -5.1%, ?, 3.5%, 5.0%, 1.7%, -6.0%, -20.1%, 3.5%
(38) NC1=C([N+](=O)[O-])C(c2ccc3c(c2)OCO3)C2=C(CCCC2=O)O1 (stereo unspecified)
  ., -13.1%, 0.3%, ., 9.8%, ?, ., .
(39) COc1ccccc1/C=C/C(=O)OCC(=O)Nc1ccc(Cl)cn1
  ., -10.1%, 0.5%, ., -26.5%, 2.9%, 4.7%[46.1 µM], -12.3%
(40) COc1ccc(NC(=O)/C(=C\c2cc(OC)c(OC)cc2[N+](=O)[O-])NC(=O)c2ccccc2)cc1
  -3.2%, 12.7%, -1.1%, 38.7%, 5.4%, ?, -3.3%, 14.0%
(41) CCOC(=O)c1cnc(-n2nc(C)cc2C)nc1NNc1cc(C)nc(-c2ccccc2)n1
  -2.8%, -26.2%, 15.1%, ?, -13.6%, 16.8%, ?, ?
(42) COCCn1c(C)cc(C(=O)COC(=O)/C=C/c2c(C)nn(C3CCS(=O)(=O)C3)c2Cl)c1C (stereo unspecified)
  ., -18.8%, 0.6%, ., 15.4%, ., ?, ?
(43) Cc1cc(NCc2cccnc2)nc(N)n1
  ., -18.1%, 0.7%, ., -5.9%, 3.9%, ., .
(44) O=C(COc1ccccc1Cl)Nc1cccnc1
  ., 48.9%[activator], -1.8%, ., -1.6%, -2.8%, ., .
(45) CSc1ccccc1NC(=O)CN(c1ccccc1)S(=O)(=O)N(C)C
  -8.8%, 5.1%, -9.2%, -6.9%, 31.7%, 1.5%, ?, 0.1%

Second line of a record: Cruzain Triton, StopGo reporter, SARS PLP yeast, Cruzain inh noDet, RE007 growth inh, NS1 function inh, MARV entry inh, LASV entry inh
(46) CC1CCN(c2nc(N3CCCCC3)nc(N3CCCCC3)n2)CC1
  ., -22.9%, 3.0%, ., -3.2%, ., 6.7%, 1.8%
(47) COc1ccc(-c2noc(CCC(=O)Nc3cccc(C)c3C)n2)cc1OC
  -5.4%, -13.4%, ., 19.5%, ., ., -2.6%[46.1 µM], 16.7%[46.1 µM]
(48) CC(C)(CNC(=O)c1cccc(S(=O)(=O)NCc2ccccc2)c1)N1CCOCC1
  ., 11.2%, -2.0%, ., 7.9%, ., 1.2%, -1.9%
(49) Cc1ccc(NC(=O)CCSc2nc(-c3ccco3)cc(C(F)(F)F)n2)cc1F
  -10.4%, -24.5%, ., 5.1%, ., ., ?, -5.4%[46.1 µM]
(50) C[C@H](O)C(=O)C1=Nc2c(nc(N)[nH]c2=O)NC1
  -3.3%, -1.7%, ., -4.4%, -11.8%[18.4 µM], -1.1%, ?, -17.9%
(51) Cc1cccc(Cl)c1NC(=S)NN
  ., 7.5%, 3.9%, ., 18.7%, -1.2%, -3.9%[46.1 µM], -26.2%
(52) COc1ccc(Cc2nnc(SCC(=O)N(C)c3ccccc3)o2)cc1
  ., -21.4%, 4.8%, ., 11.0%, 11.5%, ., .
